Screening data: PubChem BioAssay, National Center for Advancing Translational Sciences (NCATS)
GLA inh pH 4.5 = qHTS Assay for Inhibitors of Human alpha-Galactosidase at pH 4.5. purified enzyme, 4-MU-alpha-Gal fluorescence, pH 4.5. activity change, negative = inhibition, % at 105 µM. 230,000 tested, under 10 active. AID 1467, 2008; inconclusive = small, poorly fitted or top-dose-only inhibition, or a rising curve; inactive = flat fitted curve, though single readings scatter; no compound was filed as active;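 also: 0% = full activity with enzyme and -100% = basal without enzyme; dose as in the result columns while the protocol names 77 µM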
miR-21 FLuc = qHTS Assay for Modulators of miRNAs and/orActivators of miR-21 | HeLa miR-21 FLuc reporter, luciferase, 48 h | Potency, µM (series often up to 38.3 µM), for inactives: at the top dose reporter change, positive = more light | 340,000 tested, under 10 active | AID 2288, 2010; active = well fitted rising curve with a large enough effect; inconclusive = small, poorly fitted or top-dose-only effect; inactive = no such curve, though single readings can be large or run the other way;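 also: % of control where 0% means no effect; miR-21 action dims this reporter so a rising signal means less miR-21 action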
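HeLa miR-21-FLuc reporter line, endogenous miR-21; 2000 cells/well in DMEM/10% FBS; compound titration up to ~40uM final, 48 h, 37 degree Celsius; luciferase detection reagent, 15 min lysis, CCD luminescence.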
Rango complex inh = qHTS Assay for Inhibitors of Rango (Ran-regulated importin-beta cargo) - Importin beta complex formation | Importin subunit beta-1 (Homo sapiens), Q14974 | Rango CFP/YFP FRET sensor + importin beta, 45 min | Potency, µM (series often up to 92.2 µM), for inactives: at the highest dose inhibition of complex formation | 0.031% of 340,000 active | AID 540263, 2011; active = rising FRET ratio curve, often small or poorly fitted; inconclusive = mostly compound fluorescence or quenching in the first reads; inactive = flat curves in all reads;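 also: potency is read from the fitted curve at half-maximal effect; 0% = DMSO wells and 100% = buffer wells lacking importin beta; nearly all actives have a fitted effect of over 15% in size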
Target sequence (Q14974 whole entry, looked up): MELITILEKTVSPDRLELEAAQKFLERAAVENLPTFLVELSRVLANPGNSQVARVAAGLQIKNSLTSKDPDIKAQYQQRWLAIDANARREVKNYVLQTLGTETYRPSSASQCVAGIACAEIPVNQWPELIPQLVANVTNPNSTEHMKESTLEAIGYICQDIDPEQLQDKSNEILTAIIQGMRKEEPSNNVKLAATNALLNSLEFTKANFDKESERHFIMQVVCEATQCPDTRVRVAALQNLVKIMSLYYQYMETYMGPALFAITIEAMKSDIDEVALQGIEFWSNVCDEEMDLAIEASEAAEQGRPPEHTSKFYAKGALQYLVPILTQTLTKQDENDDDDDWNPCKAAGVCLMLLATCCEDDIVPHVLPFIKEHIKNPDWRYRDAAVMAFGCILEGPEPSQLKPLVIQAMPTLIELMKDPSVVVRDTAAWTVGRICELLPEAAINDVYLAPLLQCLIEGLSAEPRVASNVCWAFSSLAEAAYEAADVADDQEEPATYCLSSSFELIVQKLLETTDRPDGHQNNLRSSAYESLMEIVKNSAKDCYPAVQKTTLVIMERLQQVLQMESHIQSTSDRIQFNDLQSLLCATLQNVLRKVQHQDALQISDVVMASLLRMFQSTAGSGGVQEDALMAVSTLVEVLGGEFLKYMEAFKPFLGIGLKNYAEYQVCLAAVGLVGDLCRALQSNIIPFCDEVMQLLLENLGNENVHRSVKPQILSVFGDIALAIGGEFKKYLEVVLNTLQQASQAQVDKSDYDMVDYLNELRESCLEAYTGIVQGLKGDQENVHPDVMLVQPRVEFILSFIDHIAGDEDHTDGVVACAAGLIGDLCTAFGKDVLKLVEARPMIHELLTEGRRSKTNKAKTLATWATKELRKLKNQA
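Inhibition scored from the CFP 486 nm/YFP 530 nm FRET ratio 45 min after adding 0.125 microM importin beta to 50 nM Rango biosensor preincubated 5 min with compound (room temperature, PBS with DTT, Tween-20, BSA). No-importin wells as positive control.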
Rango dissoc inh = qHTS Assay for Inhibitors of RanGTP induced Rango (Ran-regulated importin-beta cargo) - Importin beta complex dissociation; Snurportin-1 (Homo sapiens) + GTP-binding nuclear protein Ran (Homo sapiens) + Importin …; Biochemical FRET Rango-importin beta, RanGTP-induced dissociation; Potency, µM (titrated, usually from 46.1 µM), inactives show top-dose activity change, negative = inhibition; 0.071% of 340,000 active; AID 540253, 2011; active means falling FRET ratio curve, often poorly fitted, with flat reads before Ran was added; inconclusive means other falling curves, or compound fluorescence or quenching; inactive means flat or rising ratio curve;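 also: potency is read from the fitted curve at half-maximal effect; % of control where 0% means no effect; nearly all actives have a fitted effect of over 45% in size; -100% = wells without RanGTP and RCC1; the record marks most hits as doubtful in a second field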
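Two FRET readings bracket the reaction: one 5 min after compound meets Rango–importin beta, another 45 min after RanGTP-RCC1 (0.6 uM Ran, 0.2 uM RCC1, 2 mM GTP) is added. Only the second defines inhibition.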
Numbers without * were called inactive; ? = inconclusive; · = not tested or not shown; & = joins results of further samples. Not all compounds are listed; count on the stated rates, not on these rows.

SMILES	GLA inh pH 4.5	miR-21 FLuc	Rango complex inh	Rango dissoc inh
Cc1ccccc1S(=O)(=O)Cc1ccc(C(=O)N2CCN(c3ccccc3F)CC2)o1	·	16%	0.5%	-1%
O=c1c(S(=O)(=O)c2ccc(Cl)cc2)cn(Cc2cccc(F)c2)c2ccc(F)cc12	-6	-11%	-0.6%	-7%
Cc1ccc(C(=O)Nc2c(C(=O)NCc3ccco3)cnn2-c2ccccc2)cc1	9	0%	-4.4%	-14%
Cc1ccc2c(c1)NC(=O)C(CC(=O)NCCCN1CCN(c3cc(Cl)ccc3C)CC1)O2 (configuration not stated)	5	0%	0.6%	-1%
CNC(=O)C1CC(=O)N(c2ccc(C)cc2)C1 (configuration not stated)	-1	-3%	0.6%	4%
CC(NC(=O)c1ccccc1)C(=O)NC1CCCc2ccccc21 (configuration not stated)	·	·	4.2%	-16%
COc1cc(/C=C2\C(=N)N3N=CSC3=NC2=O)ccc1OS(=O)(=O)c1ccccc1	·	-12%	?	10%
CN(CC(=O)N1CCN(c2cccc(Cl)c2)CC1)S(=O)(=O)c1cnc[nH]1	-4	-3%	0.0%	-4%
COc1ccccc1NC(=O)C1C2CCCCC21 (configuration not stated)	7	-11%	0.6%	-2%
CC1(C)NC(=O)N(c2ccccc2Cl)C1(C)NO (configuration not stated)	0	-8%	3.2%	-8%
Cc1ccc(Oc2ccc(NC(=O)CCC(=O)OCC(=O)c3cccs3)cc2)cc1C	-4	-24%	0.2%	-5%
COc1cc(C=O)ccc1OCCSc1ccc(C)cc1	-1	-37%	1.1%	2%
Cc1ccc(OCCC(=O)OCC(=O)NCCc2ccccc2)cc1	16	-1%	6.8%	-8%
Cc1ccc(-c2nnn(C(C)C(=O)N3c4ccccc4CCc4ccccc43)n2)cc1 (configuration not stated)	-3	0%	-1.9%	-7%
CC(C)(C)OC(=O)N1CCNc2ccccc2C1	-19	-11%	-1.0%	-21%
O=C(CCSc1ccccc1)Nc1nc2c(s1)COc1ccccc1-2	2	-5%	0.0%	-7%
Cn1c(CNC(=O)c2ccccc2)nnc1SCC(=O)N1CCN(c2ccccc2)CC1	4	-6%	0.9%	-9%
O=C(COC(=O)c1cc(Cl)ccc1O)NCCNC(=O)COC(=O)c1cc(Cl)ccc1O	·	-2%	-0.1%	13%
CCCc1nnc(NC(=O)CCC(=O)Nc2ccc(Br)cc2)s1	·	-2%	-0.7%	-13%
O=C(CC(NCc1ccccn1)C(=O)O)Nc1ccccc1Cl (configuration not stated)	5	1%	-0.6%	-9%

SMILES	GLA inh pH 4.5	miR-21 FLuc	Rango complex inh	Rango dissoc inh
O=C(CNCC1CCCO1)Nc1ccccc1N1CCOCC1 (configuration not stated)	0	-1%	0.1%	8%
CC(Oc1ccc(Br)cc1)C(=O)N1CCc2ccccc21 (configuration not stated)	-4	-7%	-3.0%	-19%
Cc1nn(-c2ccccc2)c(Cl)c1/C=C/C(=O)c1ccccc1	0	-20%	?	-13%
COc1ccc(C(=O)NCCNc2ncc(C(F)(F)F)cc2Cl)cc1[N+](=O)[O-]	·	-15%	-3.9%	-4%
COC(=O)c1cc(OC)c(OC)cc1NCC(=O)Nc1cccc(C(F)(F)F)c1	0	1%	0.2%	1%
CC1CCCCN1CCNC(=O)c1ccc2c(c1)N(Cc1cccc(Cl)c1)C(=O)c1ccccc1S2=O (configuration not stated)	·	-5%	2.1%	29%
CN(C)S(=O)(=O)c1ccc(N2CCCC2)c(C(=O)Nc2ccc(C(N)=O)cc2)c1	·	·	-2.8%	6%
CCCn1c(C)cc(/C=C(\C#N)C(=O)OCC(=O)N(CC)c2c(N)n(Cc3ccccc3)c(=O)[nH]c2=O)c1C	·	·	?	?
Cc1ccc(CNC(=O)c2ccccc2N(C)S(C)(=O)=O)cc1	-28	0%	0.3%	8%
CCOC(=O)N/N=C/c1cn(CCCOc2ccccc2)c2ccccc12	6	-21%	-0.5%	14%
Cc1ccccc1N1CCN(C2CCCN(C(=O)CN3CCCC3=O)C2)CC1 (configuration not stated)	·	1%	1.6%	-1%
COc1ccc(N(Cc2cc3cc(OC)ccc3[nH]c2=O)S(=O)(=O)c2ccc(NC(C)=O)cc2)cc1	·	29%	-3.7%	-23%
Cc1cccc(-n2c(SCC(=O)N3CC(=O)Nc4ccccc43)nc3ccccc3c2=O)c1C	-6	8%	0.1%	0%
CCC(C)c1ccc(NC(=S)Nc2ccc(OC)c(OC)c2)cc1 (configuration not stated)	-14	-12%	-1.3%	12%
O=C(CSCc1c(F)cccc1Cl)NCc1ccncc1	5	3%	3.1%	7%
COc1cccc(C(=O)Nc2nnc(-c3ccc(OC)cc3OC)s2)c1	·	-8%	-2.2%	-2%
CN1CCN(c2ccccc2NC(=O)Cc2ccc(Cl)cc2)CC1	-1	-2%	1.8%	-2%
COc1ccccc1C(C)NCC(=O)NCC(=O)Nc1ccc(F)c(F)c1F (configuration not stated)	4	-4%	0.1%	-4%
COc1ccc(C2c3ccc(O)cc3Oc3ncn(Cc4ccco4)c(=N)c32)cc1OC (configuration not stated)	4	-18%	?	?
CCOC(=O)c1cccc(NC(=O)Nc2ccc3c(c2)C(=O)OC3)c1	-6	-2%	2.9%	-13%

SMILES	GLA inh pH 4.5	miR-21 FLuc	Rango complex inh	Rango dissoc inh
C=CCN(C(=O)Nc1ccc2c(c1)nc(C)n2C)c1ccccc1	5	-51%	5.7%	10%
Cc1ccc2nc(NCCNC(=O)c3ccccc3)c(C#N)cc2c1	·	-10%	?	?
COc1cccc(C(=O)O/N=C/c2ccc(Sc3ccc(C)cc3)nc2)c1	-2	1%	1.0%	15%
O=C(O)c1sccc1S(=O)(=O)c1ccccc1	-3	0%	-1.0%	5%
Cc1ccc(OCC(=O)OC(C)CN(C)Cc2ccccc2)cc1 (configuration not stated)	1	0%	-4.0%	-5%
COc1ccc(OC)c(S(=O)(=O)Nc2ccc(CC(=O)O)cc2)c1	-5	-9%	1.2%	22%
CCOc1ccc(N=Nc2c(C)[nH]n(-c3ccccc3)c2=O)cc1	·	-4%	1.9%	16%
NC(=O)C1CCN(c2nc(-c3cccc(N)c3)cs2)CC1	·	·	-2.1%	4%
O=C(NCCc1ccccc1)c1noc2c1CCCCC2	1	-46%	6.8%	10%
COc1ccc(Nc2ncnc3ccccc23)c(OC)c1	0	-37%	0.5%	-16%
O=C(Cc1ccccc1)NCC(=O)OCc1ccccc1F	·	2%	1.9%	3%
Cc1ccc(SCCC(=O)N/N=C/c2ccncc2)cc1	11	-2%	-1.2%	-1%
O=C1OCC(c2ccccc2)=C1c1ccccc1[N+](=O)[O-]	11	-5%	?	5%
O=c1[nH]c2ccccc2c(=O)n1Cc1ccccc1	0	0%	-0.5%	8%
Cc1nccn1CC(O)Cn1c2ccccc2c2ccccc21 (configuration not stated)	3	-28%	6.6%	12%
COc1ccc(S(=O)(=O)N2CCCCC2)cc1NC(=O)COc1ccccc1	·	·	3.3%	1%
Cc1cc(C)nc(NC(=O)c2cccc(Cl)c2)n1	1	-13%	-1.8%	12%
Nc1cccc(-n2nnnc2CN2CCOCC2)c1	12	-9%	4.1%	-12%
NC(=O)C1CCN(c2ncnc3c(-c4ccccc4)nsc23)CC1	1	-51%	1.2%	6%
NNC(=O)COc1ccc(-c2n[nH]c(C(F)(F)F)c2-c2ccc(Br)cc2)c(O)c1	-6	27%	-1.0%	-2%

Letter code: A = GLA inh pH 4.5; B = miR-21 FLuc; C = Rango complex inh; D = Rango dissoc inh
> CC(SC(=S)N1CCOCC1)C(=O)O (configuration not stated)
  A: 0	B: -2%	C: -0.2%	D: 3%

> Cc1ccc(C(CC(=O)O)NC(=O)CCNC(=O)c2ccco2)cc1 (configuration not stated)
  A: ·	B: ·	C: -1.1%	D: -1%

> O=C(NC1CC1)C1CC(=O)N(c2ccc(F)cc2)C1 (configuration not stated)
  A: ·	B: -3%	C: -4.8%	D: -1%

> COC(=O)C(C(=O)OC)c1ccc(N)cc1
  A: 14	B: 5%	C: -3.5%	D: 9%

> O=[N+]([O-])c1c(Nc2ccc(O)cc2)cc(N2CCOCC2)c2nonc12
  A: 5	B: -17%	C: -1.4%	D: 4%

> Cc1[nH]c(C)c(S(=O)(=O)N(C)Cc2ccccc2)c1C(=O)N1CCCC1
  A: ·	B: 1%	C: -4.1%	D: -3%

> COC(=O)c1ccc(-n2c(CCC(=O)O)ccc2-c2ccc(C)cc2)cc1
  A: ·	B: -5%&-9%	C: -2.6%	D: -14%

> Cc1ccc(NC(=O)N2CCc3ccccc3C2)cc1C
  A: ·	B: -49%	C: 5.6%	D: 0%

> c1ccc(-n2ncc3c2ncn2cnnc32)cc1
  A: 1	B: 1%	C: -4.9%	D: -10%

> Cc1ccc(C(C(=O)NCc2ccco2)N(CC2CCCO2)C(=O)Cn2nnc3ccccc32)cc1 (configuration not stated)
  A: 0	B: 0%	C: -0.3%	D: -1%

> O=C(OCc1nnc(-c2ccc([N+](=O)[O-])cc2)o1)c1ccc(F)c(S(=O)(=O)N2CCOCC2)c1
  A: ·	B: ·	C: -5.0%	D: -14%

> Cc1ccc(O)c(C(CC(=O)N2CCCC2)c2ccccc2)c1 (configuration not stated)
  A: 6	B: -1%	C: 7.8%	D: 27%

> O=C(O)CCC(=O)N1c2ccccc2NC2=C(C(=O)CC(c3ccc(F)cc3)C2)C1c1ccc([N+](=O)[O-])o1 (configuration not stated)
  A: -16	B: -1%	C: 1.7%	D: -10%

> CN1C(=O)C2(NCCc3c2[nH]c2ccccc32)c2ccccc21 (configuration not stated)
  A: 3	B: -1%	C: -0.1%	D: 24%

> CCC/C(O)=C1\C(=O)CC(C)(C)CC1=Nc1ccccc1OC
  A: -4	B: 0%	C: 3.5%	D: -15%

10 successive records out of the list so far:
Letter code: A = GLA inh pH 4.5; B = miR-21 FLuc; C = Rango complex inh; D = Rango dissoc inh
> Cc1[nH]c(C)c(S(=O)(=O)N(C)Cc2ccccc2)c1C(=O)N1CCCC1
  A: ·	B: 1%	C: -4.1%	D: -3%

> COC(=O)c1ccc(-n2c(CCC(=O)O)ccc2-c2ccc(C)cc2)cc1
  A: ·	B: -5%&-9%	C: -2.6%	D: -14%

> Cc1ccc(NC(=O)N2CCc3ccccc3C2)cc1C
  A: ·	B: -49%	C: 5.6%	D: 0%

> c1ccc(-n2ncc3c2ncn2cnnc32)cc1
  A: 1	B: 1%	C: -4.9%	D: -10%

> Cc1ccc(C(C(=O)NCc2ccco2)N(CC2CCCO2)C(=O)Cn2nnc3ccccc32)cc1 (configuration not stated)
  A: 0	B: 0%	C: -0.3%	D: -1%

> O=C(OCc1nnc(-c2ccc([N+](=O)[O-])cc2)o1)c1ccc(F)c(S(=O)(=O)N2CCOCC2)c1
  A: ·	B: ·	C: -5.0%	D: -14%

> Cc1ccc(O)c(C(CC(=O)N2CCCC2)c2ccccc2)c1 (configuration not stated)
  A: 6	B: -1%	C: 7.8%	D: 27%

> O=C(O)CCC(=O)N1c2ccccc2NC2=C(C(=O)CC(c3ccc(F)cc3)C2)C1c1ccc([N+](=O)[O-])o1 (configuration not stated)
  A: -16	B: -1%	C: 1.7%	D: -10%

> CN1C(=O)C2(NCCc3c2[nH]c2ccccc32)c2ccccc21 (configuration not stated)
  A: 3	B: -1%	C: -0.1%	D: 24%

> CCC/C(O)=C1\C(=O)CC(C)(C)CC1=Nc1ccccc1OC
  A: -4	B: 0%	C: 3.5%	D: -15%
